Assay outcomes: PubChem, ICCB-Longwood Screening Facility, Harvard Medical School
MgrA-DNA mod: S. aureus MgrA activity modulators, primary screen, biochemical, S. aureus Newman, fluorescence polarization; MgrA-DNA binding; inhibition, %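 (about 10 µg/mL by stock and volumes)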; 0.13% of 84,000 active; AID 602314, 2012;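 active = above 50% in either of two replicates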;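 also: 0% = protein plus DNA without compound and 100% = DNA alone without protein; higher means less MgrA bound to DNA so lower polarization; one replicate is shown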
S aureus helic: inhibitors of S. aureus replicative helicase, primary screen, biochemical, fluorescence unwinding readout; replicative DNA helicase (DnaC/DnaB), Staphylococcus aureus; inhibition, %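 (tested at about 80 µM)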; purified S. aureus helicase, fluorescence unwinding assay; about half of the hits fall short of the stated cut; 0.05% of 120,000 active;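 active = both duplicates at 50% or more, or one of them with a favoured structure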;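 also: 0% = mean of negative control wells and 100% = mean of positive control wells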
Starred values were filed as active, the others as inactive; / = no result given. These rows are one share of the data; count on the stated rates, not on these rows.

SMILES	MgrA-DNA mod	S aureus helic
Cc1cccc(NC2=C(n3nnc4ccccc43)C(=O)c3ccccc3C2=O)c1	0.1	7
CS(=O)(=O)c1nc2ccccc2n1CC(=O)N1CCCC1	/	-3
COc1ccc2c(c1)CCc1sc(/N=C/N(C)C)nc1-2	14	/
Cc1n[nH]c(C)c1-c1ccccc1O	0.8	-16
COCCn1c(C)cc(C2=NNC(=NCc3ccc(OC)cc3)SC2)c1C	/	6
O=C(NC1CC2CCCC(C1)N2C(=O)NCc1ccccc1)C1CC1 (centres undefined)	-2.0	12
Cc1ccc(NC(=O)Cn2ccccc2=O)cc1	/	4
c1ccc(-c2csc(Nc3nc(NCc4ccco4)nc(N4CCCCC4)n3)n2)cc1	-0.3	25
CSc1nc(-c2ccccc2)ccc1C#N	2.4	/
NS(=O)(=O)c1ccc(NC(=O)CSc2ccccn2)cc1	/	8
O=C(O)c1oc2ccccc2c1CSC1=NCCS1	/	0
O=C(CN1C(=O)c2ccccc2C1=O)OC(C(=O)NC1CCCC1)c1ccncc1 (centres undefined)	4.7	8
Cc1nc2ccc(NC(=O)c3ccc(C#N)cc3)cc2s1	-1.1	/
Cc1ccc2oc(=O)c3cc(C(=O)N(Cc4ccco4)C4CCCCC4)sc3c2c1	-0.2	18
FC(F)(F)c1ccnc(Oc2ccc(I)cc2)n1	-2.3	/
Cc1cc(C)n(C(=O)C2COc3ccccc3O2)n1 (centres undefined)	/	-2
COC(=O)c1ccc(CSc2nnc(-c3ccccc3)n2-c2ccccc2)o1	/	-6
CNc1ccccc1C(=O)NCCc1ccc(OC)c(OC)c1	-1.7	/
CCCCN1C(=O)SC(Nc2ccc(F)cc2)C1=O (centres undefined)	/	12
CC1=NN(C(=O)c2cccnc2)C(C)(O)C1 (centres undefined)	/	-6
CC(C)CC(NC(=O)c1ccc(C#CC(C)(C)O)s1)C(=O)O (centres undefined)	5.5	22
CCCc1nc2ccccc2c(N)c1CC	1.6	2
Cc1occc1C(=O)NC1CCN(C)CC1	4.5	-7
O=C(Nc1cccc(Cn2cccn2)c1)c1csc2ccccc12	1.8	4
NC(=O)Cn1cnc2c(nnn2-c2ccc(OC(F)(F)F)cc2)c1=O	/	4
SMILES	MgrA-DNA mod	S aureus helic
O=C(NCCSc1c[nH]c2ccccc12)C1CCCC1	/	-14
COc1ccc(C2CC(C(F)(F)F)n3nc(C(=O)N4CCN(c5ccc(F)cc5)CC4)c(Cl)c3N2)cc1OC (centres undefined)	1.2	/
O=C(O)C1Nc2c(I)cccc2C2C=CCC12 (centres undefined)	101*	15
COC(=O)N/N=C/C1CCCCC1	/	-15
Cc1cc(Nc2ccc(C(=O)Nc3ccc4c(c3)OCO4)cc2)n2ncnc2n1	-0.4	1
Cc1cccc(NC(=O)c2nnn(-c3cccc(C(F)(F)F)c3)c2N)c1	-0.8	1
CNS(=O)(=O)c1cccc2nsnc12	/	-1
CC(=Nc1ccccc1Br)c1sc2ccccc2c1O	-4.9	/
O=C(C1COc2cc(S(=O)(=O)NCCc3ccccc3)ccc2O1)N1CCCCC1 (centres undefined)	/	9
NC(=O)c1c(NC(=O)/C=C/c2cccs2)sc2c1CCCC2	10	3
Clc1ccsc1-c1ccn[nH]1	1.8	/
CC(Sc1cccc[n+]1[O-])C(=O)Nc1cccc(Cl)c1 (centres undefined)	-0.8	-1
O=C(OCC(=O)N(Cc1ccccc1)C1CCS(=O)(=O)C1)c1cc2c(s1)CCC2 (centres undefined)	/	7
COc1ccc(C2=NN(CCC(=O)NCCCN3CCN(c4ccccc4F)CC3)C(=O)CC2)cc1	/	17
Cn1c(CO)cnc1S(=O)(=O)Cc1c(Cl)cccc1Cl	-0.8	/
C/C=C/C(=O)Nc1nc2ccc(OC)cc2s1	2.2	6
O=C(NCc1ccco1)c1ccccc1OC(F)F	/	4
COc1cccc(CC(=O)Nn2c(-c3ccc(Br)cc3)nc3ccccc3c2=O)c1	2.4	/
c1csc(N2CCCC2)n1	/	-8
FC(F)(F)c1cccc(-n2nnnc2-c2ccccc2)c1	-2.0	0
CN=C1NC(=NC)c2ccccc21	0.2	-12
CC(Oc1cccc2c1CCN(C)C2=O)c1ccccc1 (centres undefined)	/	4
CC(C)(C)C1=CC(O)(c2ccccc2)C=C(C(C)(C)C)C1=O	-0.1	/
CC(C)C(NC(=O)OCc1ccccc1)C(=O)Oc1ccc2c(=O)c(Oc3ccccc3)coc2c1 (centres undefined)	0.8	14
CC(NC(=O)c1cccs1)C(c1cccs1)N1CCN(Cc2ccccc2)CC1 (centres undefined)	/	-4
SMILES	MgrA-DNA mod	S aureus helic
c1coc(-c2cc(C3CCNCC3)[nH]n2)c1	-1.0	4
CCN(CC)S(=O)(=O)c1ccc(C(=O)C2=C3SC=C(c4ccc(OC)cc4)N3CC2)cc1	/	7
CC(=O)Nc1nc2ccccc2[nH]1	1.7	/
Cc1cc(=O)n2[nH]c(NC(=O)c3cccs3)nc2n1	-3.0	15
Cc1ccc(NC2CCCCC2NS(=O)(=O)c2ccccc2)cc1 (centres undefined)	0.3	6
COc1cc(Cc2nnc(C(=O)NC3CCCCCC3)o2)cc(OC)c1OC	-13	10
CCn1c2ccccc2c2cc(NC(=O)Oc3ccccc3)ccc21	1.3	3
Cn1c(SCCN2CCCC2)nnc1C1CCCN1C(=O)NC1CCCCC1 (centres undefined)	2.8	7
C=C(C)CSC1=C(C#N)C(C)(C)C(C#N)C(=O)N1 (centres undefined)	-2.3	17
CC1CN=C(N(Cc2ccccc2Cl)C(=O)Nc2cccc(Cl)c2)S1 (centres undefined)	-2.3	1
CCN(CC)c1ccc(/C=N/n2c(C)cc(C)cc2=O)cc1	-2.5	4
CC(C)C(C)(C#N)NC(=O)CSc1nncn1C (centres undefined)	/	-14
COc1ccc(CNc2nccs2)c(O)c1	/	6
CC(=O)Nc1sc2c(c(=O)c1O)CCCC2	/	0
Cc1ccc(SCC(=N)N)cc1	0.0	/
Cc1ccc2oc(-c3ccccc3)cc(=NCCO)c2c1	2.1	44*
CC1CCC2(CC1)Nc1ccccc1C(=O)N2CCc1ccccc1 (centres undefined)	0.5	5
c1ccc(-c2cnnc(SCc3cn4cccnc4n3)n2)cc1	/	6
CCc1ccc(Nc2ncc3c(n2)CC(C)CC3=O)cc1 (centres undefined)	-2.4	5
O=C(NCC12CC3CC(CC(C3)C1)C2)c1ccccc1	-1.6	3
NC(=O)COC(=O)c1cc2c(s1)CCC2	/	31
Cc1onc(-c2ccccc2Cl)c1C(=O)N(Cc1nc(-c2ccccc2)no1)C(C)C	0.2	20
O=C(Nc1ccc2c(c1)nc1n2CCCCC1)c1ccc(Br)o1	-1.5	7
CN(C)c1cc(N)c2ccccc2n1	8.4	10
O=C(OCc1cnc(-c2ccccc2)o1)c1ccco1	/	1
SMILES	MgrA-DNA mod	S aureus helic
CCOC(=O)c1ccccc1NC(=O)CC(C)CC(=O)O (centres undefined)	/	-30
Cc1cc(Br)ccc1NC(=O)C1CC(O)CN1C(=O)OCc1ccccc1 (centres undefined)	-2.4	3
O=S(=O)(c1ccc(NC(=S)N2CCCC2)cc1)N1CCCCC1	/	-11
N#CCn1cnc2c(cnn2-c2ccccc2)c1=O	0.3	4
N=C1S/C(=C/c2ccco2)C(=O)N1c1nccs1	31	10
CCC(C)c1ccc(NC(=O)c2ccc(N(CC)CC)cc2)cc1 (centres undefined)	0.4	5
CC1CCc2c(sc3nc(-c4ccco4)oc(=O)c23)C1 (centres undefined)	3.4	/
C=CCn1c(NC(=O)COc2ccccc2)nc2ccccc21	2.2	7
Cc1sc2nc(CN3CCN(C(=O)c4ccco4)CC3)n(C(=O)c3ccco3)c(=O)c2c1C	-1.6	4
Oc1ccc(C(=S)N2CCCCCC2)cc1	0.0	2
S=C(NCc1ccc2c(c1)OCO2)N(Cc1ccco1)Cc1cccs1	/	-2
CCC1Oc2ccc(C)cc2N(CC(=O)NCCCN2CCN(c3ccccc3F)CC2)C1=O (centres undefined)	0.1	3
CCN(CC)C(=O)Cn1c(C)c(C#N)c2ccccc21	-1.9	6
CCc1ccccc1NC(=O)C1=CC(c2cccc(OC)c2)=NS(=O)(=O)N1C	1.6	-8
COc1ccc(CCNC(=O)CSc2nncn2C)cc1	/	-12
CC(=N/Nc1nnc(C)n1N)/C(C)=N/Nc1nnc(C)n1N	-3.5	6
CCC1C(=NO)C(CC)C(c2ccccc2)NC1c1ccccc1 (centres undefined)	1.1	7
CCCCc1c(COC)[nH]c(=S)[nH]c1=O	0.9	/
Clc1ccc(N2CCCCCCC2)nn1	-1.1	7
COC(=O)c1cc(S(=O)(=O)N(C)Cc2ccccc2)c[nH]1	/	-11
CC(C)N(Cc1nc(-c2ccccc2)no1)C(=O)COc1ccccc1	/	5
CCCCc1ccc(C(=O)Nc2ccc(Cl)c3c2C(=O)c2ccccc2C3=O)cc1	0.3	/
NC(=S)N/N=C/c1ccc(F)cc1	0.7	/
N#Cc1nccnc1S(=O)(=O)CCO	-3.9	/
Cc1cccc(NC(=O)CN2NS(=O)(=O)c3ccccc3C2=O)c1	/	5
SMILES	MgrA-DNA mod	S aureus helic
O=S(=O)(c1ccc(Cl)cc1)N1CCC2(CC1)OCCO2	/	-8
COC(=O)c1cc2c(C)nn(Cc3ccccc3Cl)c2s1	/	-16
COc1ccc(COC(=O)C2=C(C)NC(=O)NC2c2cccc(Oc3ccccc3)c2)cc1 (centres undefined)	1.5	/
N#CCC(=O)c1nsc(Cl)c1Cl	10	14
Cn1cccc1Cc1nnc(SCC(=O)Nc2ccc3c(c2)OCO3)n1-c1ccc(F)cc1	0.0	10
Cc1nc2ccccn2c1-c1ccnn1C(=O)c1ccc(C(F)(F)F)cc1	-1.7	/
CC(=O)NC(C(=O)O)c1ccccc1 (centres undefined)	1.7	/
c1csc(CNC2CCCC2)c1	-0.2	4
CCc1cc2ccccc2nc1Cl	-1.8	4
CC(OC(=O)c1ccccc1NS(C)(=O)=O)c1nnc(-c2cccs2)o1 (centres undefined)	/	13
O=C(COc1ncnc2ccccc12)NCc1ccccc1	-1.4	-10
COC(=O)c1c(C)oc(C)c1S(=O)(=O)NC1CCCCCCCCCCC1	0.2	/
O=C(O)C1C2C=CC(C2)C1C(=O)Nc1nccs1 (centres undefined)	/	-20
CCCNC(=O)CC(c1cccs1)N1Cc2ccccc2C1=O (centres undefined)	/	-17
CCN1C(N)=C(C#N)C2(CCNCC2)c2nc(C)oc21	2.0	-20
CCOC(=O)c1cnc(Nc2nc3ccccc3o2)nc1CSc1nnc(C)s1	/	16
CCCOc1ccc2oc(=O)c3c(c2c1)CCCN3C(=O)CN(C)c1ccc(C)cc1	0.2	14
O=C(O)Cn1cc(Br)c(=O)[nH]c1=O	-2.4	14
COc1c(C)cnc(CO)c1C	-2.0	/
O=C(O)CSC(=S)c1ccccc1	1.2	/
CCc1ccc(NC(=O)C(C)OC(=O)c2cccnc2Cl)cc1 (centres undefined)	-0.2	3
C/C(=N\NC(=S)NCC1CCCO1)c1ccc(OCC(=O)N(C)C)cc1 (centres undefined)	/	-2
Cc1cnc(NC(=O)c2c(C)noc2C)s1	/	-1
O=C(Nc1ccc(N2CCOCC2)cc1)c1sc2cc(F)ccc2c1Cl	/	-30
O=C(c1ccc2c(c1)N(Cc1ccccc1)C(=O)c1ccccc1S2=O)N1CCCC1 (centres undefined)	/	5
Nc1cc[n+](CC(O)CO)cc1 (centres undefined)	56*	-39
CCc1ccc(NC(=O)C2c3ccccc3C(=O)N(C)C2c2cccs2)cc1 (centres undefined)	1.0	0
O=C(Nc1ccc2c(c1)OCO2)NN1CCOCC1	-6.8	7
CC(C)(C)C(=O)/C(C#N)=C/c1ccc2c(c1)OCCO2	/	2

An excerpt from above in order of formula weight, largest number first:
SMILES	MgrA-DNA mod	S aureus helic
COc1ccc(C2CC(C(F)(F)F)n3nc(C(=O)N4CCN(c5ccc(F)cc5)CC4)c(Cl)c3N2)cc1OC (centres undefined)	1.2	/
COc1ccc(C2=NN(CCC(=O)NCCCN3CCN(c4ccccc4F)CC3)C(=O)CC2)cc1	/	17
Cc1cc(Br)ccc1NC(=O)C1CC(O)CN1C(=O)OCc1ccccc1 (centres undefined)	-2.4	3
CCCOc1ccc2oc(=O)c3c(c2c1)CCCN3C(=O)CN(C)c1ccc(C)cc1	0.2	14
S=C(NCc1ccc2c(c1)OCO2)N(Cc1ccco1)Cc1cccs1	/	-2
O=C(Nc1ccc2c(c1)nc1n2CCCCC1)c1ccc(Br)o1	-1.5	7
NC(=O)Cn1cnc2c(nnn2-c2ccc(OC(F)(F)F)cc2)c1=O	/	4
CC(C)N(Cc1nc(-c2ccccc2)no1)C(=O)COc1ccccc1	/	5
CCn1c2ccccc2c2cc(NC(=O)Oc3ccccc3)ccc21	1.3	3
CCCNC(=O)CC(c1cccs1)N1Cc2ccccc2C1=O (centres undefined)	/	-17
NS(=O)(=O)c1ccc(NC(=O)CSc2ccccn2)cc1	/	8
COc1ccc(CCNC(=O)CSc2nncn2C)cc1	/	-12
CCN(CC)c1ccc(/C=N/n2c(C)cc(C)cc2=O)cc1	-2.5	4
CC1CCc2c(sc3nc(-c4ccco4)oc(=O)c23)C1 (centres undefined)	3.4	/
CC(Oc1cccc2c1CCN(C)C2=O)c1ccccc1 (centres undefined)	/	4
O=C(O)C1C2C=CC(C2)C1C(=O)Nc1nccs1 (centres undefined)	/	-20
Cc1cnc(NC(=O)c2c(C)noc2C)s1	/	-1
Oc1ccc(C(=S)N2CCCCCC2)cc1	0.0	2
Clc1ccc(N2CCCCCCC2)nn1	-1.1	7
Cc1n[nH]c(C)c1-c1ccccc1O	0.8	-16
CC(=O)Nc1nc2ccccc2[nH]1	1.7	/

Three entries out of the list, sorted by molecular weight, ascending:
SMILES	MgrA-DNA mod	S aureus helic
CCc1cc2ccccc2nc1Cl	-1.8	4
O=C(O)CSC(=S)c1ccccc1	1.2	/
Cn1cccc1Cc1nnc(SCC(=O)Nc2ccc3c(c2)OCO3)n1-c1ccc(F)cc1	0.0	10
